Screening data as filed in PubChem.
Bead autofluor: compound fluorescence in toxin protease inhibitor counterscreen; hit rate 3.1% among 360,000; fluorescence intensity (no concentration beside the values); compound autofluorescence counterscreen, microsphere flow cytometry; stronger effect = higher value; AID 624483;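 active = at least 3 SD above the mean of all compounds, about 16000 in these data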;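 also: 100 nL of 1 mM stock went into each well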
RN4220 kill: kills Staphylococcus aureus RN4220; S. aureus RN4220 growth, OD600, 16 h; inhibition, % (test concentration not listed); hit rate 0.33% among 330,000;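 active = z-score of -3 or lower and OD600 up to 0.18 on both plates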;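 also: plate controls were untreated cells for no effect and reference antibiotic for full effect; stock transfer was 100 nL into about 80 µL; one replicate is shown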
Mtb hypoxia inh: Mtb hypoxia fluorescent reporter inhibition; M. tuberculosis hypoxia-regulated fluorescent reporter, fluorescence; fluorescence inhibition, % (test concentration not listed); hit rate 0.1% among 300,000;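 active = 35 to 45% if threefold the growth effect, above 45% if 1.5-fold the growth effect; inactive = the rest, general growth blockers included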;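 also: wells of about 50 µL received 100 nL stock; 0% = vehicle wells and 100% = reference inhibitor wells; whole bacteria with a GFP reporter of the hypoxia response; strong numbers were not always called active; many hits fall short of the cut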
Sa ugtP lethal: kills S. aureus RN4220 lacking UgtP; hit rate 0.54% among 330,000; AID 1259309; S. aureus RN4220 ugtP deletion, OD600 growth, 16 h; some inactives read as strong as hits; growth inhibition, % (test concentration not listed);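 active = z-score under -3 and OD600 up to 0.15 on both plates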;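 also: plate controls were untreated wells for no effect and antibiotic for full effect; wells of about 80 µL received 100 nL stock; the first replicate is given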
PrP UTR inh: suppresses PrP 5' UTR mRNA reporter expression. inhibition, % (test concentration not listed). hit rate 0.35% among 340,000. cell-based PrP 5' UTR mRNA reporter, plate reader;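 active = every replicate at 50% or more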;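 also: 0 = median of the neutral control wells; tested in H4 reporter cells; numbers are from one replicate; inactives centre near -14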
BJeLR lethal: BJeLR cell viability loss; BJeLR (HRASV12) viability, CellTiter-Glo ATP luminescence, 48 h; reference of the scale not given here; inhibition, % (concentration not given with the values); hit rate 0.17% among 300,000; AID 1554;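 active = replicate mean above 50%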;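 also: 50 nL library stock added to about 25 µL; numbers are from one replicate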
Mtb hypoxia inh growth: further read-out of Mtb hypoxia inh, marked with its call; growth inhibition, %; measured here: M. tuberculosis growth (absorbance);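 0% = vehicle and 100% = reference antibiotic; read after six days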
Starred values were filed as active, the others as inactive; x = not tested or not shown.

Results follow in this order: Bead autofluor	RN4220 kill	Mtb hypoxia inh	Mtb hypoxia inh growth	Sa ugtP lethal	PrP UTR inh	BJeLR lethal
#1 NS(=O)(=O)c1cccc(NC(=O)CSc2ncc(C(F)(F)F)cc2Cl)c1
 : 3089	0.8	10	8	-4	-1	-7
#2 Cc1ncc(C23CC4CC(CC(C4)C2)C3)[nH]1
 : 10832	0.6	8	10	1	-14	4
#3 CC1(C)NC(=O)N(CCOc2cccc(Cl)c2Cl)C1=O
 : 10610	0.2	-2	10	-13	-36	-9
#4 O=C(CCC1CCCN(C(=O)c2cccc(F)c2)C1)N1CCN(c2ccccn2)CC1 (stereo unspecified)
 : 6455	4.8	5	5	2	-5	-2
#5 COc1ccc(-c2nn(-c3ccccc3)cc2/C=C(\CC(=O)O)c2nc3ccccc3s2)cc1OC
 : 3405	31	-8	9	18	-13	4
#6 Cc1ccc([N+](=O)[O-])cc1NC(=O)C(C)Sc1nnc(C)n1CC1CCCO1 (stereo unspecified)
 : 5059	1.2	16	6	3	-4	-7
#7 O=C1Nc2ccccc2C1=O
 : 4257	4.1	x	x	12	3	-3
#8 CCCc1c(C)[nH]c2nc3ccccc3n2c1=O
 : 3318	1.3	-3	3	11	-7	-16
#9 CCC(C)NS(=O)(=O)c1ccc(NS(C)(=O)=O)cc1 (stereo unspecified)
 : 3458	-4.2	x	x	-2	12	-5
#10 CCc1cc2c(COC(=O)c3c(C)noc3C)cc(=O)oc2cc1O
 : 4526	3.8	5	10	4	x	20
#11 CCOC(=O)Cn1c(=O)oc2cc(S(=O)(=O)NCc3ccccn3)ccc21
 : 4376	3.6	-3	-4	-14	-8	-14
#12 O=C(NCc1ccco1)C(c1cccs1)N(Cc1ccccc1)C(=O)Cn1nnc2ccccc21 (stereo unspecified)
 : 3035	-2.8	x	x	9	-20	2
#13 Cn1c(SCCOc2ccc(F)cc2)nnc1-c1ccncc1
 : 3300	2.3	-7	-10	0	-19	-3
#14 CCOC(=O)c1sc(N)c(C(=O)OC)c1C
 : 4781	-1.4	-3	1	-1	-28	-4
#15 Cc1ccc(S(=O)(=O)CCC(=O)OCC(=O)N(Cc2ccccc2)C(C)C)cc1
 : 5130	4.7	5	-2	6	-9	-5
#16 Cc1cc(Oc2ccc(OCC(N)=O)nn2)nc(Cl)n1
 : 4889	3.8	6	0	-1	-23	4
#17 CCCCC(=O)Nc1cccc(NC(=O)c2cccc(Br)c2)c1
 : 2145	-1.5	-2	4	-13	-21	-4
#18 CC1CCCCC1NC(=O)CCCCn1c(=O)[nH]c2ccsc2c1=O (stereo unspecified)
 : 5892	4.3	1	2	6	-12	-11
#19 O=C(COC(=O)Cc1ccc(Br)cc1)NC12CC3CC(CC(C3)C1)C2
 : 4176	10	16	7	-10	-22	8
#20 CC1CCCC(C)N1CCNC(=O)CCc1nnc2n(Cc3ccccc3)c(=O)c3ccccc3n12 (stereo unspecified)
 : 8218	-2.1	x	x	-2	-3	-5
#21 O=C(CSc1nccc(=O)[nH]1)N1CCCc2ccccc21
 : 9076	1.2	-5	8	5	3	3
#22 O=C(Nc1ccccc1O)c1ccc2c(c1)C(=O)N(N1C(=O)c3ccccc3C1=O)C2=O
 : 5645	1.0	-3	9	-4	-3	1
#23 COC(=O)/C(=C1/Oc2cc3c(cc2S1)OCO3)C(F)(F)F
 : 9577	22	9	5	-4	-46	-11
#24 CC(=O)Nc1ccc(S(=O)(=O)Oc2ccc(C(=S)N3CCC(O)CC3)cc2)cc1
 : 2379	8.1	3	8	-2	-8	5
#25 COCCNC(=O)c1c(CSc2ccc(F)cc2)noc1C(=O)NCc1ccccc1
 : 3836	7.3	6	6	-9	-1	-2
#26 CCc1nnc(NC(=O)CSc2nnc(-c3ccccc3OC)n2-c2ccc(C)cc2)s1
 : 4668	16	x	x	1	-5	-6
#27 C=CCc1ccc(OCCOCCN(C)C)c(OC)c1
 : 3818	6.1	7	7	0	4	-14
#28 CN(CC(=O)Nc1cccc(F)c1)C(=O)/C=C/c1cn(Cc2ccccc2)nc1-c1cccnc1
 : 12461	2.8	1	6	2	-33	2
#29 Cc1cc2ccccc2n2c(SCC(=O)NCc3cccs3)nnc12
 : 10131	-7.1	1	-2	11	-19	12
#30 COc1ccc(NC(=O)Cn2cnc3c(cnn3C(C)(C)C)c2=O)cc1OC
 : 5839	1.0	10	8	1	-17	1
#31 COc1ccc(C2=NN(C(=O)c3cccs3)C(O)(C(F)(F)F)C2)cc1 (stereo unspecified)
 : 4329	19	7	1	27	-2	-1
#32 CCNC1CC(C)S(=O)(=O)c2sc(S(N)(=O)=O)cc21 (stereo unspecified)
 : x	6.3	-1	3	6	x	x
#33 Cc1ccc(CSC2=NCCN2C(=O)c2ccco2)cc1
 : 5616	3.3	x	x	11	-21	11
#34 CC(C)C[C@H](NC(=O)C1CC(=O)N(c2ccc3c(c2)OCO3)C1)C(=O)NC1CCCCC1 (stereo partly specified)
 : 5785	3.6	10	15	4	0	-4
#35 Cc1ccc(NS(=O)(=O)c2cccc(C(=O)NCc3ccccn3)c2)cc1
 : 4460	2.3	11	4	5	-84	0
#36 O=C(COC(=O)c1cccc(S(=O)(=O)N2CCOCC2)c1)Nc1nc(-c2ccccc2Cl)cs1
 : 3876	4.1	7	2	6	-22	-1
#37 O=c1[nH]c2cc(Cl)c(Br)cc2o1
 : 3687	7.2	3	-13	-2	-18	x
#38 COC(=O)c1ccc(NC(=O)c2ccc(OC(C)=O)c(OC)c2)cc1
 : 3866	5.5	7	-1	1	-44	4
#39 Cc1cccc(NC(=O)c2ccc(S(=O)(=O)NCc3ccco3)cc2)n1
 : 2909	5.2	7	-5	2	-36	x
#40 O=C(CSc1nnc(-c2ccncc2)n1Cc1ccco1)Nc1ccccc1Cl
 : 4365	3.3	5	9	2	-9	-5
#41 O=[N+]([O-])c1ccc(N2CCN(S(=O)(=O)c3ccccc3)CC2)cc1NCCN1CCOCC1
 : 3607	0.0	-8	2	-1	-4	-9
#42 CCOC(=O)C1=CN(Cc2ccco2)S(=O)(=O)NC1CC (stereo unspecified)
 : 3452	2.3	5	-1	7	-46	x
#43 C[C@@H](C(=O)OCC(=O)NCCc1ccc(S(N)(=O)=O)cc1)N1C(=O)C2CCCCC2C1=O (stereo partly specified)
 : 3855	2.5	1	3	5	-8	-2
#44 CCC(NC(=O)Nc1cc(C)on1)(C(F)(F)F)C(F)(F)F
 : 3212	3.0	-5	15	-3	-26	1
#45 O=C(C1CCC(=O)N(C2CC2)C1)N1CCN(c2cccc(Cl)c2)CC1 (stereo unspecified)
 : 6351	3.2	19	12	5	-9	3
#46 CCOC(=O)c1c(C)[nH]c(C(=O)OCC(=O)c2ccccc2)c1C
 : 5980	1.6	7	15	-2	-65	-6
#47 CC(C(=O)Nc1ccc(Br)cc1)N(C)CC(=O)NCc1ccco1 (stereo unspecified)
 : 3562	5.8	6	4	2	-14	x
#48 O=C(COc1ccc2c(c1)CCC2)N1CCN(c2ccc(F)cc2)CC1
 : 6218	5.6	8	10	5	-14	10
#49 O=C1Nc2c(c(=O)[nH]c(=O)n2Cc2ccccc2)C1(NS(=O)(=O)c1ccccc1)C(F)(F)F (stereo unspecified)
 : 3741	4.3	12	2	12	-34	-10
#50 COc1cc(/C=C/c2[nH]c(=O)[nH]c(=O)c2[N+](=O)[O-])cc(OC)c1O
 : 4099	2.1	7	2	4	-11	-1
#51 Cc1ccc(NC(=S)Nc2ccc3[nH]c(=O)[nH]c3c2)cc1C
 : 3251	8.6	5	2	1	-35	-3
#52 CC[C@@]1(C(=O)OC)N[C@H](CN(C)C(=O)COc2ccccc2)[C@@H]2C(=O)N(Cc3ccccc3)C(=O)[C@@H]21
 : 3034	5.8	2	2	13	-12	x
#53 CCCN(CCC)Cc1cc(=O)oc2cc3c(cc12)CCC3
 : 6196	9.5	0	-12	14	-22	-7
#54 O=C1c2ccccc2[C@@H]2C[C@@H](O)[C@H](Nc3ccccc3-c3ccccc3)CCN12
 : 3435	2.7	-2	2	2	2	x
#55 COc1ccc(CCn2c(C)cc(C(=O)CSc3nc(N)cc(=O)[nH]3)c2C)cc1
 : 10281	-0.6	6	5	5	x	-2
#56 c1ccc(CCN2CCN=C2Nc2ccccc2)cc1
 : 4087	4.4	0	12	-7	-1	4
#57 CC(C)(C=NO)/[N+]([O-])=C/c1ccccc1
 : x	2.2	12	14	8	x	x
#58 CN(C)S(=O)(=O)N1CCN(CC(O)COc2ccc3cc(Br)ccc3c2)CC1 (stereo unspecified)
 : 2790	-7.2	x	x	-7	-9	-6
#59 COC(=O)c1c(NC(=O)c2nc3ccccc3s2)sc2c1CC(C)(C)NC2(C)C
 : 4194	0.2	4	5	6	-13	13
#60 CCOc1ccc2c(c1)n([O-])c1c([n+]2=O)CCCC1
 : 2532	4.6	x	x	5	-18	-9

Further entries
Results follow in this order: Bead autofluor	RN4220 kill	Mtb hypoxia inh	Mtb hypoxia inh growth	Sa ugtP lethal	PrP UTR inh	BJeLR lethal
#61 Cc1c(NC(=O)COC(=O)c2ccccc2Cl)c(=O)n(-c2ccccc2)n1C
 : 4082	1.8	16	3	3	-17	4
#62 COc1ccc(NC(=O)CN(C)C(=O)c2cn(-c3ccccc3)nc2-c2ccc(F)cc2)cc1
 : 3467	1.4	5	3	2	-13	x
#63 CCCCNC(=O)C(=O)N/N=C/c1ccc(OCC(=O)Nc2cccc(OC)c2)c(OC)c1
 : 2138	x	x	x	x	-22	1
#64 COC(=O)C1(C(F)(F)F)C2C=CC(C2)N1S(=O)(=O)c1ccc(C)cc1 (stereo unspecified)
 : 3990	2.6	-1	1	11	-16	-6
#65 O=C1CC(c2ccc3c(c2)OCO3)Sc2nc3ccccc3n21 (stereo unspecified)
 : 8914	5.1	10	-1	12	44	-2
#66 CCOC(=O)C1CCN(S(=O)(=O)c2ccc(C)cc2)CC1
 : 5320	3.8	14	4	-1	-20	-4
#67 CCc1nc(CNC(=O)C2CCC(=O)N(CCc3ccc(OC)cc3)C2)cs1 (stereo unspecified)
 : 4289	0.0	4	1	9	-10	-7
#68 O=c1[nH]c(SCc2ccccc2[N+](=O)[O-])nc2nc[nH]c12
 : 4136	x	x	x	x	-11	-7
#69 O=C(c1cn(-c2ccccc2)nc1-c1cccs1)N(CCO)Cc1ccccc1
 : 3374	-2.8	2	3	12	-26	6
#70 CC(=NN1CCCCC1)c1ccccc1O
 : x	2.3	12	6	1	x	x
#71 C/C(=N/NC(=O)Cc1ccccc1)c1ccc(C)s1
 : 9734	x	x	x	x	-29	-9
#72 CC(=O)N1CCN(c2ccccc2NC(=O)c2ccc(Br)o2)CC1
 : 5610	1.3	2	5	0	-32	-2
#73 CC1SC(=Nc2ccccc2)N(S(=O)(=O)c2ccccc2)C1=O (stereo unspecified)
 : 7570	5.7	-5	2	17	-21	0

Part of the list above in order of formula weight, low to high:
Results follow in this order: Bead autofluor	RN4220 kill	Mtb hypoxia inh	Mtb hypoxia inh growth	Sa ugtP lethal	PrP UTR inh	BJeLR lethal
#71 C/C(=N/NC(=O)Cc1ccccc1)c1ccc(C)s1
 : 9734	x	x	x	x	-29	-9
#64 COC(=O)C1(C(F)(F)F)C2C=CC(C2)N1S(=O)(=O)c1ccc(C)cc1 (stereo unspecified)
 : 3990	2.6	-1	1	11	-16	-6
#61 Cc1c(NC(=O)COC(=O)c2ccccc2Cl)c(=O)n(-c2ccccc2)n1C
 : 4082	1.8	16	3	3	-17	4
